CtBP-E1A blk – CtBP/E1A binding inhibition. AlphaScreen GST-E1A/His-CtBP binding, 1536-well; active compounds read low; control for the full effect not named in the record. activity change, % (concentration not given with the values). 340,000 compounds, 0.49% hits. AID 651724; in the data active means activity change below about -65%; inconclusive means about -30% to -65%; inactive means above about -30%; further: on the % scale 0 is the no-effect control and ±100 the full control effect
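Steps: dispense buffer (Tris pH 8.0, NaCl 300 mM, TCEP 1 mM, BSA, Tween 20); add 5X protein mix (GST-E1A, His-CtBP, 125 nM each); pin 23 nL compound; 2 h at 37 °C, dark; add 5X beads (50 ug/mL); 1 h; read.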
TRPML1 ag – agonists of human TRPML1 channel; activation, % (concentration not given with the values); 410,000 compounds, 0.12% hits; Q9GZU1; TRPML1-expressing cells, Ca2+ dye fluorescence, FDSS; host cell line not named in the record; reference of the full effect not given here; in the data active = activation above about 50%; inconclusive = about 30% to 50%; inactive = below about 30%; further: 0% is about no effect; the text of the record puts the active cut at 80%
Target sequence (Q9GZU1 whole entry, looked up): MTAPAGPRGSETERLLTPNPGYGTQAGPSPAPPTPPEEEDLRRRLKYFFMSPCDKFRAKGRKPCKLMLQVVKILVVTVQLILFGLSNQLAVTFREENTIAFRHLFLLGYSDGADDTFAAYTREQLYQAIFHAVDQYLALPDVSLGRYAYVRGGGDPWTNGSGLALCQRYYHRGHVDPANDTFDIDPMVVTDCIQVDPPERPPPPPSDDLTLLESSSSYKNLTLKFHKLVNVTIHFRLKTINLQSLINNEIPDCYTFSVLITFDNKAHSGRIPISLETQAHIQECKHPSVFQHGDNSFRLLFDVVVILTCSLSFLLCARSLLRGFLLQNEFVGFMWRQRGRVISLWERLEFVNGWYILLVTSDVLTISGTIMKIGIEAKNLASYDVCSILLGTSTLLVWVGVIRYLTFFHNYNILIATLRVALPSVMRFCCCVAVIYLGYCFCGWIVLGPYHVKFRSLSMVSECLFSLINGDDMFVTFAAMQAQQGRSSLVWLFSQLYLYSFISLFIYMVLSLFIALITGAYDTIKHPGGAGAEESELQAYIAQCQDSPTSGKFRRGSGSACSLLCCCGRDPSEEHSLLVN
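Kinetic FDSS Ca2+ read in Tet-induced TRPML1-DL cells (ABD Ca8 dye plus quencher, 45-90 min RT loading): baseline, then compound, then 110 s agonist window; EC80 agonist 54-4 at 4uM final added afterwards for a 110 s antagonist window.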
PINK1 expr mod – modulators of PINK1 expression | PINK1 immunofluorescence, high-content cytometry, 24 h | Potency, µM (top dose mostly 76.6 µM), for the others: at the top dose activation (PINK1 increase), hits mostly activators | 410,000 compounds, 0.2% hits; active = well fitted activation curve with a large enough effect; inconclusive = small, poorly fitted or top-dose-only effect; inactive = flat fitted curve, though single readings scatter; cell line not stated here;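 further: potency means the concentration at half of the fitted maximal effect; % of control where 0% means no effect; nearly all actives have a fitted effect of over 65% in size; a mitochondrial uncoupler was the plate control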
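Measures PINK1 amount and localization on or inside mitochondria by immunofluorescence. Stable cells get compounds at 5 concentrations for 24 hours before fixation and staining; CCCP controls included.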
Six1-Eya2 inh – blocks human Six1 binding to Eya2. Q15475+O00167. AlphaScreen GST-Six1/His-Eya2 binding, biochemical; active compounds read low; control for the full effect not named in the record. activity change, % (concentration not given with the values). 360,000 compounds, 0.56% hits. AID 651725; in the data active = activity change below about -65%; inconclusive = about -30% to -65%; inactive = above about -30%; further: on the % scale 0 is the no-effect control and ±100 the full control effect
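GST-Six1 + His-Eya2 (5X stock: 250/500 nM); Tris pH 8.0, 300 mM NaCl, 0.05% BSA, 0.02% Tween 20; GSH donor/Ni acceptor beads; 1 h 37 °C dark; AlphaScreen readout.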
TRPML1 inh – human mucolipin-1 channel inhibition | TRPML1-inducible cells, Ca2+ dye fluorescence, FDSS; active compounds read low; inhibition of EC80 agonist-evoked calcium signal | 390,000 compounds, 0.02% hits | activity change, negative = inhibition, % (test concentration not listed) | AID 624415; in the data active means activity change below about -50%; inconclusive means about -30% to -50%; inactive means above about -30%;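 further: stimulus is agonist 54-4 at its EC80 concentration; on the % scale 0 is the no-effect control and ±100 the full control effect; compound concentration not given in the record; the text of the record puts the active cut at -80%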
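TRPML1-DL cells, Tet-induced overnight (~16 h, 37 °C) at 1,500 cells/well, were loaded with Ca8 no-wash dye plus quencher for 45-90 min at room temperature. Compounds were pinned during FDSS kinetic reading; agonist 54-4 at EC80 (4 uM final) then added.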
D2 ag – activates the human D2 dopamine receptor | AID 624465 | 360,000 compounds, 0.084% hits | activation, % (test concentration not listed) | DiscoveRx PathHunter D2 beta-arrestin, luminescence, 90 min; 100% = 57 uM dopamine signal | P14416; in the data active = activation above about 40%; inconclusive = about 15% to 40%; inactive = below about 15%; further: compound concentration not given in the record; the text of the record calls up to 30% inactive
Target sequence (P14416 whole entry, looked up): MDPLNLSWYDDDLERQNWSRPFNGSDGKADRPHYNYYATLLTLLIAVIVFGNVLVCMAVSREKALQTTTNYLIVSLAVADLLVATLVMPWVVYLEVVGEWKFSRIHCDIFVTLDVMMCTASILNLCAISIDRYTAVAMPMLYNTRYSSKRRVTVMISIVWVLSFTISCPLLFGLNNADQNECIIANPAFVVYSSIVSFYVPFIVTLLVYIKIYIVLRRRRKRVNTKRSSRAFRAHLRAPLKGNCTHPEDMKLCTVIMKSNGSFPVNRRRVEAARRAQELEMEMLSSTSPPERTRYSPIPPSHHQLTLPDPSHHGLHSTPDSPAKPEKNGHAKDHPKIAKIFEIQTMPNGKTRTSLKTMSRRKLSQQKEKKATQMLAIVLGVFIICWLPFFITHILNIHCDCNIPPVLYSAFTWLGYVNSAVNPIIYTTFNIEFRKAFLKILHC
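Agonist mode: compounds alone added to overnight-plated D2 PathHunter cells for 90 min at 37 C, with 57 uM final dopamine (EC100) defining full response. Beta-arrestin recruitment detected by chemiluminescent reagent, read after 1 h at ambient temperature.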
The depositor's hits bear a star; ? = inconclusive; . = no result given; [ ] = dose if it differs, or a comment. Outcome played no part in choosing rows; 1% or so of the library scored in one or more.

Start of the data: the first 5 compounds as a preview:
Order of values: CtBP-E1A blk, TRPML1 ag, PINK1 expr mod, Six1-Eya2 inh, TRPML1 inh, D2 ag
CCOCCCNC(c1ccccc1)c1ccncc1 (configuration not stated)
  ., -0.2, 0.4%, 0, 4, -4.2
CCCOCC(O)COc1ccccc1C(=O)N1CCOCC1 (configuration not stated)
  3, -0.4, -0.5%, -1, 1, 0.1
COc1ccc(CNC(=O)/C=C/c2ccc(OCCCF)cc2)cc1OC
  0, 2.7, 4.3%, 2, 3, -6.6
CC(Sc1nnc(NC2CC2)s1)C(=O)Nc1ccc(S(N)(=O)=O)cc1 (configuration not stated)
  7, -0.6, -2.2%, 3, 2, -3.3
O=C(CN(CC1CCCO1)C(=O)CNS(=O)(=O)c1ccccc1)NCc1ccccc1 (configuration not stated)
  1, 0.9, -2.3%, -4, -2, 0.4

Results, previewed entries included:
Order of values: CtBP-E1A blk, TRPML1 ag, PINK1 expr mod, Six1-Eya2 inh, TRPML1 inh, D2 ag
CCOCCCNC(c1ccccc1)c1ccncc1 (configuration not stated)
  ., -0.2, 0.4%, 0, 4, -4.2
CCCOCC(O)COc1ccccc1C(=O)N1CCOCC1 (configuration not stated)
  3, -0.4, -0.5%, -1, 1, 0.1
COc1ccc(CNC(=O)/C=C/c2ccc(OCCCF)cc2)cc1OC
  0, 2.7, 4.3%, 2, 3, -6.6
CC(Sc1nnc(NC2CC2)s1)C(=O)Nc1ccc(S(N)(=O)=O)cc1 (configuration not stated)
  7, -0.6, -2.2%, 3, 2, -3.3
O=C(CN(CC1CCCO1)C(=O)CNS(=O)(=O)c1ccccc1)NCc1ccccc1 (configuration not stated)
  1, 0.9, -2.3%, -4, -2, 0.4
CCC(C)C(NC(=O)C1CCC(C)CC1)C(=O)NCCCN1CCCCC1CC (configuration not stated)
  1, -0.4, 1.4%, 4, 39, -5.5
CC(=O)c1sc(N)c(C(=O)OC(C)C)c1C
  12, 0.7, 4.7%, 5, -17, 0.5
CCc1ccc(NC(=O)C(C)Sc2nnc(CN3CCCC3)o2)cc1 (configuration not stated)
  1, -0.8, -0.7%, 3, 4, -5.1
Cn1nc(C(C)(C)C)cc1C(=O)NCc1cc(F)cc2c1OCOC2
  ., -0.8, 2.6%, 9, 2, -3.0
CCn1nc(C(=O)NNC(=O)COc2ccc(OC)cc2)c2ccccc2c1=O
  -1, -1.4, 2.1%, 1, 1, -7.3
O=C(O)c1c(Cl)c(Cl)c(Cl)c(Cl)c1C(=O)N1CCCCCC1
  6, -0.2, -1.9%, -2, 1, -1.5
CCc1ccc(NC(=O)C(=O)NCc2ccccn2)cc1
  -5, 0.4, -0.7%, 15, 5, 0.4
CC(=O)Nc1ccc(NC(=O)C(C)OC(=O)CNC(=O)c2cccs2)cc1 (configuration not stated)
  -1, -0.3, -0.9%, -4, 23, -1.2
N#Cc1c(N2CCN(C(=O)c3ccco3)CC2)nc(-c2ccccc2)c2c1CCCC2
  0, 4.4, 0.1%[38.3 µM], -6, -17, -3.6
Clc1nssc1=Nc1nncs1
  -11, -0.6, 13%, -19, -2, -5.0
Clc1ccccc1CN1CCN(CCCc2ccccc2)CC1
  -1, 2.0, 6.8%, 0, -11, -4.1
CC(NC(=O)C(=O)NN=C1CCCCCCCCCCC1)c1ccccc1 (configuration not stated)
  2, 2.4, -3.5%, 4, 2, -0.5
Cc1cccc(-n2c(=O)c3ccccc3n(Cc3ccccc3)c2=O)c1
  ., -0.9, 0.9%, ., 5, .
O=C1CC(N2CCN(c3ccc(F)cc3)CC2)C(=O)N1c1ccc2c(c1)OCO2 (configuration not stated)
  ., 0.5, -0.2%, 1, 5, 0.6
COc1ccc(NC(=O)CCN(c2ccc(OC)cc2)S(=O)(=O)c2ccc(C)c(C)c2)cc1
  -6, 2.3, -0.7%, -6, -11, -0.7
CCn1c(=O)c(C(=O)Nc2cccnc2)c(O)c2ccccc21
  7, -0.1, -4.2%[38.3 µM], 4, -4, 2.0
CCC/C(=N\NC(=O)C1CC1)c1ccc(Br)cc1
  10, 1.8, 1.4%, 3, -2, 3.1
COc1cc2nc(=S)n3[nH]c(COc4ccccc4C)nc3c2cc1OC
  5, -1.9, 1.5%, -15, 0, -5.1
COc1ccc2c(CC(=O)NNC(=O)c3cccs3)coc2c1
  4, 0.2, -0.8%, -8, 6, -2.7
O=C(/C=C/c1cccs1)c1ccc(N2CCOCC2)cc1
  ., 4.0, 0.3%, -3, -6, -2.6
O=[N+]([O-])c1ccc(Cl)cc1CN1CCCCCC1
  -14, -0.4, 6.5%, -8, 3, -5.1
Cc1ccc(NC(=O)Nc2cccc(C(F)(F)F)c2)nc1
  1, 0.4, 2.7%, 7, 13, -0.7
Cc1cccc(Oc2ccc(Cl)cc2N)c1
  7, 1.0, 11%, 5, -18, -4.1
CCOc1ccc(C)cc1S(=O)(=O)n1nc(C)cc1C
  4, 3.6, -0.3%, 0, 18, 1.9
COc1ccc(C(=O)Nn2c(C)nc3ccccc3c2=O)cc1[N+](=O)[O-]
  ., 1.3, 0.6%, -4, -7, -5.0

Continued:
Order of values: CtBP-E1A blk, TRPML1 ag, PINK1 expr mod, Six1-Eya2 inh, TRPML1 inh, D2 ag
CC1CCC2(CC1)NC(=O)N(NC(=O)c1cc3ccccc3o1)C2=O (configuration not stated)
  8, -0.3, 2.2%, 2, 3, -0.9
O=c1oc2ccccc2c(O)c1C=NCc1ccccn1
  ?, -0.4, 1.8%, ?, 22, -4.3
S=C(NCCc1ccccc1)N1CCCCC1
  0, -0.5, -0.4%, 3, 13, -2.1
O=C(CCCOc1ccccc1)Nc1cccc(S(=O)(=O)N2CCCCC2)c1
  7, 1.5, 1.1%, -4, -8, 1.5
COc1cc(/C=N/NC(=O)c2cc(C)oc2C)ccc1OCc1ccccc1
  2, 1.0, 12%, -4, 12, -2.3
Cc1ccc(NC(=O)c2cc(-c3ccccc3O)n[nH]2)cc1C
  6, 0.6, 1.6%, -2, 15, -2.6
Cc1ccc(C)c(CN2C(=O)C(O)(c3c(C)[nH]c4ccccc34)c3ccccc32)c1 (configuration not stated)
  ., -0.6, 1.8%, ., 0, .
COc1ccc(Nc2cc(Nc3ccccc3)ncn2)cc1
  0, 1.9, -1.4%, 13, 12, 10
Cc1ccc(Nc2nc3c([nH]2)c(=O)[nH]c(=O)n3C)cc1
  -2, 1.3, ?, -2, -8, -2.6
Cc1ccc(N(Cc2cc3ccccc3[nH]c2=O)C(=O)c2cccs2)cc1
  2, -0.1, 0.7%, -5, -2, -1.6
COc1ccc2c(c1)cc(C(=O)N[C@H](C(=O)N1CCC[C@H]1C(=O)O)C(C)C)n2C
  7, ., -0.8%, 1, ., -4.1
Cc1ccc(C(=O)OCC(=O)N(Cc2ccccc2)C(C)C)cc1C
  -25, 3.5, -4.8%, 9, 0, 0.4
CCc1ccc(OCCCC(=O)O)c(Br)c1
  14, 0.1, ., -1, 3, 0.3
Cc1ccc(-n2c(N)c(C#N)c(-c3ccc(Cl)cc3)c(C#N)c2=O)cc1
  6, 0.5, 16%, 32, -16, -9.6
O=C(Nc1ccccn1)c1ccc(Br)c(S(=O)(=O)N2CCCCC2)c1
  16, -1.2, 1.9%, 6, -5, -4.2
O=C(O)C1CCCCC1C(=O)Nc1nc(-c2cccs2)cs1 (configuration not stated)
  -1, 1.3, -0.5%, 8, 29, -0.9
COc1ccc(NC(=O)c2c(-c3c(Cl)cccc3Cl)noc2C)cn1
  5, 0.9, 1.2%, 0, 1, -4.3
Cc1nnc(SCCN2CCOCC2)n1C
  10, 0.8, -0.3%, 0, 8, -1.1
COc1ccc(S(=O)(=O)N2CCCC2)c(C)c1C
  -1, 0.3, -0.5%, 13, 20, 0.7
CC(=O)N[C@@H](CC(=O)O)C(=O)O
  1, -0.4, 0.4%, 5, -2, -3.7
CCCN1CCN(S(=O)(=O)c2c(C)[nH]c(C)c2C(=O)N2CCCCC2)CC1
  11, -0.4, -1.4%, 4, -12, -2.4
COc1cc(/C=C(\C#N)c2nc3ccccc3[nH]2)ccc1OCc1ccccc1F
  ., 0.9, ?, ., -20, .
NC1=NC(=O)/C(=C/c2ccc(Br)cc2)S1
  ., 0.5, -0.2%, 3, -4, 1.4
O=C1C(=O)N(CCN2CCOCC2)C(c2ccccn2)/C1=C(/O)c1ccc(F)cc1 (configuration not stated)
  -12, -0.7, -0.2%, -13, 2, -0.6
Cn1nnnc1SCC(=O)C(C)(C)C
  4, -1.0, -0.7%, -20, 0, -2.7
O=C(NC1CCCCC1NC(=O)c1cccs1)c1cccs1 (configuration not stated)
  2, 0.8, 2.6%, 4, 4, -0.6
Cc1ccc(C)c(N2N=C(C(=O)OCc3nnc(-c4ccccc4Br)o3)CCC2=O)c1
  -8, -0.2, 2.3%, -6, 47, 0.7
CC(CN1CCCCC1)OC(=O)C(C)(c1ccccc1)c1ccccc1 (configuration not stated)
  -11, 1.3, 0.4%, -14, 8, -3.7
O=C(Nc1ccc2oc(-c3ccccc3F)nc2c1)c1ncn[nH]1
  ., 1.0, 1.5%, -17, 9, 2.4
CCC1(CC)NC(=O)N(CC(=O)OCC(=O)Nc2cc(OC)ccc2OC)C1=O
  -3, 0.5, 2.0%, -1, -8, -1.9

Going on with the list.
Order of values: CtBP-E1A blk, TRPML1 ag, PINK1 expr mod, Six1-Eya2 inh, TRPML1 inh, D2 ag
c1ccc2c(CN3CCCCC3)csc2c1
  18, -0.1, 0.6%, 3, 7, 0.9
CCN(CC)S(=O)(=O)c1ccc(OC(C)C)c(NC(=O)C2=COCCO2)c1
  0, -0.3, -1.3%, -1, 58, 2.6
CCCN(CCC)S(=O)(=O)c1ccc(NC(=O)COc2ccccc2)cc1
  7, -0.3, 3.4%[38.3 µM], 2, 0, -1.5
COc1ccc(C(=O)Nc2cc(OC)nc(OC)n2)cc1
  -4, -0.4, -0.6%, 0, -2, -1.4
CCOc1ccc(S(=O)(=O)N2CCN(C(=O)c3cc([N+](=O)[O-])ccc3N3CCOCC3)CC2)cc1
  -2, 0.0, -1.2%, 5, -2, -6.6
Cc1nc(N2CCCCC2)c2c(C)c(C(=O)Nc3ccc4c(c3)OCCO4)sc2n1
  ., -1.3, -0.6%, ?, -9, 3.6
CN(CC(=O)NC(=O)NC1CCCCC1)CC(=O)Nc1ccc(Cl)cc1
  2, -0.8, -0.9%, 2, 4, 5.4
O=C(CCNC(=O)c1ccccc1Cl)Nc1ccc(Br)c(C(F)(F)F)c1
  ., 0.5, 0.0%, 0, -20, 4.6
Cc1noc(C)c1CSc1nc2[nH]ncc2c(=O)n1-c1ccccc1
  -7, -1.2, 8.3%, -8, 1, -3.3
Cn1c(SCCOc2cccc(Cl)c2)nnc1-c1ccncc1
  -1, -0.2, 2.4%, -7, 0, -1.6
COc1ccc(Br)cc1-c1nc(CCl)cs1
  ., 1.9, 0.4%, 0, 17, -6.1
O=C(c1cccc(S(=O)(=O)N2CCCC2)c1)N1CCN(S(=O)(=O)c2cccc(Cl)c2)CC1
  ., -0.1, -0.8%, 0, 31, -5.4
O=C(CS(=O)(=O)Cc1ccccc1)Nc1cccnc1
  6, 0.5, 0.8%, -2, -3, -0.3
COC(=O)C1C(=O)C2=C(CC1C)Nc1ccccc1NC2c1cccs1 (configuration not stated)
  7, -0.7, -1.0%, -2, 8, -4.3
